# Screening data: PubChem, National Center for Advancing Translational Sciences (NCATS)
# VACV mCherry inh = inhibitors of vaccinia virus infection (mCherry reporter signal); 310,000 tested, 0.63% active; Vaccinia virus mCherry reporter infection, fluorescence; about a quarter of the inactives have no number; AID 720579; Potency, µM (series often up to 36.5 µM), inactives show top-dose activity change, negative = inhibition, actives largely listed as inhibitors; active = well fitted inhibition curve with a large enough effect; inconclusive = small, poorly fitted or top-dose-only effect; inactive = no such curve, though single readings can be large or run the other way; tested in A549 cells; note: nearly all actives have a fitted effect of over 35% in size; inactives centre near -10
# VACV Venus inh = vaccinia inhibition (Venus reporter); 330,000 tested, 0.46% active; AID 720580; Vaccinia virus Venus reporter expression, fluorescence; Potency, µM (top dose mostly 36.5 µM), for the others: top-dose activity change, negative = inhibition, hits mostly inhibitors; active means well fitted inhibition curve with a large enough effect; inconclusive means small, poorly fitted or top-dose-only effect; inactive means no such curve, though single readings can be large or run the other way; tested in A549 cells; note: nearly all actives have a fitted effect of over 30% in size; inactives centre near -10
# The depositor's hits bear a star; i = inactive; ? = inconclusive; · = not tested or not shown; & = joins results of further samples; [ ] = remark or other dose. % is set by controls: 0 for no effect and ±100 for the full control effect; potency is the fitted concentration of half-maximal effect. Not a hit list. About 0.88% of those tested had a hit in this group.
SMILES,VACV mCherry inh,VACV Venus inh
O=C(COc1ccc(F)cc1Cl)N(Cc1nnc(-c2ccccc2Cl)o1)C1CC1,?,-27%
Cc1ccc(S(=O)(=O)N(C)C)cc1NC(=O)COC(=O)C1CC(=O)N(c2ccc3c(c2)OCCO3)C1 (centres undefined),-2%,2%
COc1cccc(NC(=O)c2csc3c2CCCCC3)c1,-15%,-14%
Cc1c(C(=O)N2CCCC2)sc(NC(=O)c2cccc(Cl)c2)c1C#N,-16%,-16%
NC(=O)NC(CC(=O)NCCCc1ccccc1)c1ccccc1Cl (centres undefined),i,4%
CC(=O)Nc1ccc(OCc2cnc(Cl)s2)cc1,-14%,1%
O=C(Nc1c(F)cc(F)cc1Br)c1cc2nc(C(F)F)cc(C(F)F)n2n1,·,-22%
COc1ccccc1OC(C)C(=O)Nc1ccccc1C(=O)NCc1cccnc1 (centres undefined),-7%,-14%
OC(c1ccccc1)c1nc(-c2cccc(C(F)(F)F)c2)cs1 (centres undefined),-26%,?
CCOC(=O)Cn1nc(C)c2c1CCCC2=O,-14%,-6%
O=C(COC(=O)c1ccc2c(c1)OCCO2)NCCc1ccccc1,-10%,-5%
O=C(Nc1nc(-c2ccncc2)cs1)C1c2ccccc2Oc2ccccc21,-16%,-7%
COc1cc(-c2nc3n(n2)C(c2ccncc2)C2=C(CCCC2=O)N3)cc(OC)c1OC (centres undefined),-17%,-5%
O=C(c1ccc(-c2ccccc2)c(F)c1)C1CCCN(C(=O)c2cncs2)C1 (centres undefined),-19%,-17%
CCN1C(=O)[C@H]2[C@@H](c3ccc(C(F)(F)F)cc3)N[C@]3(CCCN(Cc4ccc(C)cc4)C3=O)[C@H]2C1=O,-26%,-24%
Nc1ncnc2c1ncn2[C@@H]1O[C@H](CO)[C@@H](O)[C@@H]1O,?,-23%
O=C(Nc1nc(=O)[nH]s1)c1ccccc1,i,-7%
C[N+]1(CC(=O)c2ccc(I)cc2)CCCc2ccccc21 (centres undefined),-13%,-26%
COc1cc(OC)cc(-c2oc(=O)c3cc(OC)c(OC)cc3c2/C=C/c2ccc(F)cc2)c1,?,-18%
Cc1ccc(N2CCN(Cc3nnc(-c4ccc5c(c4)OCO5)o3)CC2)c(C)c1,-12%,-14%
Cc1cc(Nc2cccc(Cl)c2)n2ncnc2n1,-1%,-9%
CC1CCCN(C(c2ccccc2)c2sc3ncnn3c2O)C1 (centres undefined),-18%,-5%
Cc1cc2nn(-c3ccc(F)cc3)nc2cc1NC(=O)c1ccc(OC(C)C)cc1,-1%,0%
O=C(C[n+]1ccc(C(=O)N/N=C/c2ccc(OCc3ccccc3)cc2)cc1)c1ccccc1,i,-5%
Clc1ccc(CO/N=C2\CCCc3nonc32)cc1,-9%,4%

# Next entries
SMILES,VACV mCherry inh,VACV Venus inh
Cc1ccc(NC(=O)c2ccc(CNS(=O)(=O)c3ccc4c(c3)C(C)(C)C(=O)N4C)cc2)cc1F,?,-23%
O=C(CSCc1ccc(F)cc1)Nc1ccccc1,-14%,-9%
O=C(NCc1ccccc1)c1ccc(NC(=O)c2ccco2)cc1,i,-10%
COc1ccccc1NC(=O)c1ccc(NS(=O)(=O)c2c(C)noc2C)cc1,-20%,-13%
O=C(Cn1c(-c2ccco2)nc2ccccc21)N1CCCCC1,-4%,-5%
Cc1ccc(NC(=O)Cn2c(C)cc(C)c(C#N)c2=O)cc1F,-11%,-5%
Cc1ccc2oc(C(=O)N(C)Cc3ccc(C)o3)c(C)c2c1,-16%[7.34 µM],-8%[7.34 µM]
COc1ccc(NC(=O)CN(c2ccc(C)cc2)S(=O)(=O)c2cccs2)cc1,-2%,4%
Cc1nc(Nc2nc(-c3ccccc3)cc(=O)[nH]2)nc2ccccc12,10µM*,10µM*
Cc1ncc(CN2CCCC(C(=O)Nc3ccc(-c4cccc(F)c4)cc3)C2)cn1 (centres undefined),-1%,?
Cc1c(C(=O)N2CCCCC2)c(S(=O)(=O)N(C)Cc2ccco2)c(C)n1C,i,-10%
CC(C)(C)c1ccc(S(=O)(=O)O/N=C2/CCCCC2c2ccc([N+](=O)[O-])cc2[N+](=O)[O-])cc1 (centres undefined),i,-22%
COc1cccc(S(=O)(=O)Nc2cccc(C(=O)N3CCCCCC3)c2)c1,-9%,-12%
CCCN(C(=O)Cc1ccc(S(=O)(=O)N2CCOCC2)s1)c1c(N)n(Cc2ccccc2)c(=O)[nH]c1=O,i,-2%
COc1cccc(NC(=O)CN(C)C(=O)CC2Sc3ccccc3NC2=O)c1 (centres undefined),-24%,-17%
COc1ccc(CCNC(=O)C(C)OC(=O)c2cccs2)cc1OC (centres undefined),-2%,-6%
CCOC(=O)c1c(C)[nH]c(C(=O)OCc2ccccc2F)c1C,-14%,-15%
COc1ccc(-n2c(=O)c3ccc(C(=O)NCc4ccc(C)cc4)cc3n(CC(=O)Nc3cccc(F)c3)c2=O)cc1,-18%,-17%
COc1ccc(NC(=O)c2nnn(CC(=O)Nc3c(C)cc(C)cc3C)c2N)cc1OC,i,-2%
Cc1ccc(CNC(=O)Cn2cc(S(=O)(=O)Cc3cccc(Cl)c3)c3ccccc32)cc1,?,-22%
COc1cccc2cc(C(=O)NCc3ccc(Cl)cc3)c(=N)oc12,i,-13%
CCc1cc(C(=O)OC)c(NC(=O)CC2SC(=NC)N(C)C2=O)s1 (centres undefined),i,-5%
CCOc1ccc(CNC(=O)c2cccc(NC(=O)N3CCSc4ncccc43)c2)cc1OC,-9%,-9%
O=S(=O)(NCc1nnc2ccccn12)c1ccc(Cl)cc1,-13%,-9%
CCOc1ccccc1CNS(=O)(=O)c1cc2c(cc1C)NC(=O)CO2,i,-2%

# New compounds follow.
SMILES,VACV mCherry inh,VACV Venus inh
COc1ccc(CN2[C@@H](CC(=O)O)c3ccccc3S2(=O)=O)cc1,-17%&-15%,-8%&-14%
O=C(NN=Cc1ccc(N(CCCl)CCCl)cc1)c1cccnc1,-16%,-4%
Cc1ccsc1/C=N/NC(=O)c1nnn(-c2nonc2N)c1C,-14%,-12%
COc1ccccc1NC(=O)c1sc2nc3c(c(C(F)(F)F)c2c1N)CN(C(C)=O)CC3,-2%,5%
CCN(CC)c1ccc(S(=O)(=O)N2CCOCC2)cc1NC(=O)CN1C(=O)NC2(CCCC2)C1=O,i,-16%
N#CC1=C(N)C(C#N)(C#N)C(c2cccnc2)C2COCC=C12 (centres undefined),-19%,-10%
N#CC1=C(N)SC(N)=C(C#N)C1c1cccc(Oc2ccccc2)c1,-15%,-5%
O=C(c1cccnc1)N1CCCC(Nc2ccc(F)cc2)C1 (centres undefined),i,-12%
CC(=O)c1c(C)nc(-c2ccc(Cl)cc2)nc1NC(=O)C(C)C,-19%,-18%
COc1ccc(/C=C/C(=O)Nc2cccc(S(=O)(=O)N3CCCC3)c2)cc1OC,i,-21%
CC1=NNC(=O)C1CCC(=O)N/N=C/C(Br)=C/c1ccccc1 (centres undefined),-13%,4%
Cc1c(C(=O)Oc2ccc(-c3cnc4ccccc4n3)cc2)cccc1[N+](=O)[O-],-5%,4%
CCc1ccc(OCC(=O)N(Cc2ccc(C(C)C)cc2)C2CCS(=O)(=O)C2)cc1 (centres undefined),-12%,-16%
O=C(Nc1ccccc1N1CCCCC1)c1cccc(OC(F)F)c1,-12%,-9%
O=C(NC1CCCCC1)C(c1ccccc1)N1CCC2(CC1)OCCO2 (centres undefined),i,-10%
Cc1ccccc1C(=O)Nc1ccc2nc3n(c(=O)c2c1)CCC3,-27%,?
O=C(Nc1nccs1)c1ccc(Cl)c(S(=O)(=O)N2CCCCC2)c1,·,?
COc1ccc(-c2nc3cc(NC(=O)c4ccc5c(c4)OCO5)ccc3o2)cc1,i,?
CC(=O)Nc1nonc1-c1nnc(SCC(=O)Nc2cc(C)ccc2C)n1-c1ccccc1,-2%,-1%
COc1ccccc1NC(=O)Cn1nc(-c2ccc(C)cc2)c2c(c1=O)CCCC2,-13%,-10%
CCc1nnc(NC(=O)CN2CCC(O)(c3ccccc3OC)CC2)s1,i,-8%
CCOC(=O)c1ccc(CNC(=O)CSc2nc(NC(=O)c3ccccc3)c3c(C)c(C)oc3n2)cc1,-10%,-14%
CCc1cccc2[nH]c3cc([N+](=O)[O-])ccc3c12,?,-2%
O=C(O)CCc1ccc(S(=O)(=O)N2CCOCC2)cc1,-9%,-10%
CCCCC(=O)NC(Nc1sc2c(c1C(N)=O)CCCC2)(C(=O)OCC)C(F)(F)F (centres undefined),i,-6%

# 2 compounds drawn at random from the list so far, as already listed:
SMILES,VACV mCherry inh,VACV Venus inh
O=C(c1cccnc1)N1CCCC(Nc2ccc(F)cc2)C1 (centres undefined),i,-12%
O=C(NN=Cc1ccc(N(CCCl)CCCl)cc1)c1cccnc1,-16%,-4%

# (listing goes on)
SMILES,VACV mCherry inh,VACV Venus inh
C[C@@H]1CN([C@@H](C)CO)C(=O)c2cc(C#Cc3cccc(F)c3)cnc2O[C@@H]1CN(C)CC1CCOCC1,-19%,-26%
O=C(COC(=O)C1(c2ccc(F)cc2)CCCC1)Nc1ncc(C(F)(F)F)cc1Cl,-8%,2%
CC(Nc1cc(N2CCCC2)ccc1[N+](=O)[O-])c1ccccc1 (centres undefined),·,-12%
Cn1c(NC(=O)c2ccccc2C(F)(F)F)cc(=O)n(C)c1=O,-11%,-6%
COc1cccc(NC(=O)COC(=O)c2sccc2C)c1,-10%,0%
COc1ccc(-c2noc(CCC(=O)Nc3cccc(C(=O)NC4CC4)c3)n2)cc1OC,5%,-14%
CCOc1ccc(CCNC(=O)c2cnccn2)cc1OCC,-17%,-14%
O=C(CNc1ccc(F)cc1)N/N=C1\CCCc2ccccc21,-29%,-6%
O=C(CN1C(=O)NC2(CCc3ccccc3C2)C1=O)Nc1ccc(F)cc1 (centres undefined),i,-15%
O=C(c1cccc(NS(=O)(=O)c2ccccc2)c1)N1CCCCC1,-8%,-7%
COCCNC(=O)c1ccc(N2CC3CC(C2)c2cccc(=O)n2C3)c(NC(=O)c2ccccc2Cl)c1 (centres undefined),?,?
Cc1noc(C)c1C(=O)Nc1sc(C)c(-c2ccccc2)c1C#N,-7%,4%
Cc1ccc(S(=O)(=O)N(CC(=O)Nc2ccccc2C(=O)O)c2ccccc2)cc1,i,3%
CCOC(=O)C1=C(C)NC2=C(C(=O)OC2)C1c1ccccc1 (centres undefined),-17%,-25%
C=C1C=C(C(F)F)n2ncc(C(=O)NCCc3ccccc3OC)c2N1,-8%,-19%
CCC(CC)C(C(=O)NCc1ccccc1)N1CCN(CCN2CCOCC2)CC1 (centres undefined),?,-16%
COc1ccc(CCNC(=O)c2cc3c(=O)n4cccc(C)c4nc3n(CC3CCCO3)c2=N)cc1 (centres undefined),-9%,-1%
CCc1ccccc1NC(=O)Cn1c2ncccc2c(=O)n1-c1ccccc1,-12%,-12%
CCOC(=O)c1nc(-c2ccccc2)sc1C(C)=O,-14%,-14%
COc1ccc(OCC(=O)NNC(=S)NC(=O)c2ccc([N+](=O)[O-])cc2)cc1,i,-6%
CSCC[C@H](NC(=O)NCCC1=CCCCC1)C(=O)O,·,-1%
COc1ccc(C(C)=O)cc1CN1C(=O)C(Cc2ccccc2)ON=C1c1ncccc1C (centres undefined),13%,-6%
CCCCNC(=O)c1cc(-c2ccc(OC)c(OC)c2)on1,-3%,9%
CCOC(=O)[C@@H]1[C@H]2COc3ccccc3[C@H]2N2C(=O)N(c3ccc(Cl)cc3)C(=O)[C@@]12C,-8%,-13%
COCCn1c(SCC(=O)N2CCC(C)CC2)nc2c(c1=O)SCC2,i,-12%

# Gathered by group, the entries above containing a Cl atom (15)
SMILES,VACV mCherry inh,VACV Venus inh
O=C(COc1ccc(F)cc1Cl)N(Cc1nnc(-c2ccccc2Cl)o1)C1CC1,?,-27%
Cc1c(C(=O)N2CCCC2)sc(NC(=O)c2cccc(Cl)c2)c1C#N,-16%,-16%
NC(=O)NC(CC(=O)NCCCc1ccccc1)c1ccccc1Cl (centres undefined),i,4%
CC(=O)Nc1ccc(OCc2cnc(Cl)s2)cc1,-14%,1%
Cc1cc(Nc2cccc(Cl)c2)n2ncnc2n1,-1%,-9%
Clc1ccc(CO/N=C2\CCCc3nonc32)cc1,-9%,4%
Cc1ccc(CNC(=O)Cn2cc(S(=O)(=O)Cc3cccc(Cl)c3)c3ccccc32)cc1,?,-22%
COc1cccc2cc(C(=O)NCc3ccc(Cl)cc3)c(=N)oc12,i,-13%
O=S(=O)(NCc1nnc2ccccn12)c1ccc(Cl)cc1,-13%,-9%
O=C(NN=Cc1ccc(N(CCCl)CCCl)cc1)c1cccnc1,-16%,-4%
CC(=O)c1c(C)nc(-c2ccc(Cl)cc2)nc1NC(=O)C(C)C,-19%,-18%
O=C(Nc1nccs1)c1ccc(Cl)c(S(=O)(=O)N2CCCCC2)c1,·,?
O=C(COC(=O)C1(c2ccc(F)cc2)CCCC1)Nc1ncc(C(F)(F)F)cc1Cl,-8%,2%
COCCNC(=O)c1ccc(N2CC3CC(C2)c2cccc(=O)n2C3)c(NC(=O)c2ccccc2Cl)c1 (centres undefined),?,?
CCOC(=O)[C@@H]1[C@H]2COc3ccccc3[C@H]2N2C(=O)N(c3ccc(Cl)cc3)C(=O)[C@@]12C,-8%,-13%
